LASV entry inh – qHTS for Inhibitors of binding or entry into cells for Lassa Virus; Lassa virus pseudotype entry inhibition, cell reporter; control for the full effect not named in the record; Potency, µM (doses to about 37.9 µM), without a hit: at the highest dose activity change, negative = inhibition, hits mostly inhibitors; 300,000 compounds, 1.2% hits; active means well fitted inhibition curve with a large enough effect; inconclusive means small, poorly fitted or top-dose-only effect, or effect the other way; inactive means flat fitted curve, though single readings scatter; tested in HEK293 cells; further: on the % scale 0 is the no-effect control and ±100 the full control effect; nearly all actives have a fitted effect of over 50% in size; luciferase read-out
Cruzain noTriton – qHTS Assay for Promiscuous and Specific Inhibitors of Cruzain (without detergent); AID 1476, 2009; purified cruzain, Z-FR-AMC fluorescence, no detergent; Potency, µM, without a hit: max response, negative = inhibition, actives largely listed as inhibitors; 200,000 compounds, 2.3% hits;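 further: plate controls were enzyme without inhibitor for no effect and buffer without enzyme for full effect; nearly all actives have a fitted effect of over 40% in size; top concentration of the series not given in the record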
Target sequence (P25779 123-467 limits assumed): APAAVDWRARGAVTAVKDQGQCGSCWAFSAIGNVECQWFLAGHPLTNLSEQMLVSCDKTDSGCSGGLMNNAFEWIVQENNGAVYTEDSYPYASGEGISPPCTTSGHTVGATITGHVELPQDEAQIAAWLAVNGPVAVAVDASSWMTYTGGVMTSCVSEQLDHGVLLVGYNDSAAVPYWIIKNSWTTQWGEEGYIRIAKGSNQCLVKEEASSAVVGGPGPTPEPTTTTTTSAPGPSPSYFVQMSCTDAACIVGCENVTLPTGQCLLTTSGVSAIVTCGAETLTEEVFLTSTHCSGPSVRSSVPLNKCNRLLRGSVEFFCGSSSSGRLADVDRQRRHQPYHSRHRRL
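Purified cruzain at 1.5 nM, pre-incubated 15 min with compound at room temperature in 100 mM sodium acetate pH 5.5, 5 mM DTT, 0.00005% Triton X-100. Reaction started with 2 uM Z-FR-AMC; AMC fluorescence increase over 60 s gives rate.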
Cruzain inh Det – qHTS Assay for Promiscuous and Specific Inhibitors of Cruzain (with detergent) | Potency, µM, for the others: max response, negative = inhibition, hits mostly inhibitors | purified cruzain, Z-FR-AMC fluorescence, 0.01% Triton | AID 1478, 2009 | 200,000 compounds, 0.43% hits;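 further: plate controls were neutral wells for no effect and buffer without enzyme for full effect; nearly all actives have a fitted effect of over 40% in size; top concentration of the series not given in the record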
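Purified cruzain (1.5 nM final) was preincubated with compounds for 15 min at room temperature in 100 mM sodium acetate pH 5.5, 5 mM DTT, 0.01% Triton X-100. Reaction started with 2 uM Z-FR-AMC; AMC fluorescence change over 60 s gave activity.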
NS1 inh – qHTS Assay for Inhibitors of Influenza NS1 Protein Function; S. cerevisiae slowed by influenza A NS1, growth recovery by OD600; Potency, µM (top dose mostly 46.1 µM), inactives show at the top dose activity, positive = more growth; 270,000 compounds, 0.4% hits; active means well fitted rising curve with a large enough effect; inconclusive means small, poorly fitted or top-dose-only effect; inactive means no such curve, though single readings can be large or run the other way; further: nearly all actives have a fitted effect of over 50% in size
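In this qHTS, NS1 from influenza A is expressed in budding yeast, where it slows growth. Cells are switched from glucose to 2% galactose medium (pH 6.0, -URA), treated with compound, and growth recovery is read at OD600.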
Marburg entry inh – qHTS for inhibitors of binding or entry into cells for Marburg Virus; Potency, µM (titrated, usually from 37.8 µM), for inactives: at the top dose activity change, negative = inhibition, actives largely listed as inhibitors; 300,000 compounds, 1.8% hits; AID 540276, 2011; Marburg virus pseudotyped entry inhibition, cell reporter; control for the full effect not named in the record; about a third of the inactives were read at about 46 µM; active = well fitted inhibition curve with a large enough effect; inconclusive = small, poorly fitted or top-dose-only effect, or effect the other way; inactive = flat fitted curve, though single readings scatter; tested in HEK293 cells; about a fifth of its hits are not listed in these tables; further: on the % scale 0 is the no-effect control and ±100 the full control effect; luciferase read-out
SARS PLpro yeast – qHTS of Yeast-based Assay for SARS-CoV PLP. S. cerevisiae expressing SARS-CoV PLpro, growth rescue; control for the full effect not named in the record. Potency, µM (doses to about 32.9 µM), inactives show at the highest dose activity, positive = growth rescue. 330,000 compounds, 0.19% hits. AID 485353, 2010; active means well fitted rising curve with a large enough effect; inconclusive means small, poorly fitted or top-dose-only effect; inactive means no such curve, though single readings can be large or run the other way; further: 0% is about no effect; nearly all actives have a fitted effect of over 55% in size; growth read by luminescence after 48 h
RE007 growth inh – qHTS Assay for Inhibitors of the HIV-1 protein Vpr; AID 651644, 2012; 360,000 compounds, 0.21% hits; S. pombe RE007 Vpr strain, BacTiter-Glo ATP luminescence, 24 h; control for the full effect not named in the record; Potency, µM (highest dose often 92.2 µM), for inactives: at the top dose activity change, negative = less growth; active = well fitted falling curve with a large enough effect; inconclusive = small, poorly fitted or top-dose-only effect; inactive = no such curve, though single readings can be large or run the other way;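 further: on the % scale 0 is the no-effect control and ±100 the full control effect; nearly all actives have a fitted effect of over 50% in size; the assay follows cell death caused by Vpr and the record does not say whether a fall means rescue or toxicity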
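Fission yeast RE007 carrying one integrated HIV-1 vpr copy, seeded at OD 0.01 in PMG+AL medium with 23 nL pinned compound. Grown 24 h at 30 degrees; viability read by BacTiter-Glo luminescence after 5 min.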
2A StopGo – High Throughput Screening for Foot and Mouth Disease Virus Antivirals. Potency, µM (series often up to 57.9 µM), inactives show top-dose signal change, negative = less light. 410,000 compounds, 1.2% hits. human cells with a luciferase reporter of 2A StopGo recoding; control for the full effect not named in the record. AID 1159524, 2015; active = well fitted falling curve with a large enough effect; inconclusive = small, poorly fitted or top-dose-only effect; inactive = no such curve, though single readings can be large or run the other way; tested in HEK293T cells; further: on the % scale 0 is the no-effect control and ±100 the full control effect; nearly all actives have a fitted effect of over 45% in size; luciferase light after 4 h
Active calls of the source: *; ? = inconclusive; . = not tested or not shown; & = joins results of further samples; [ ] = remark or other dose. Unless noted, the call rests on the fitted dose curve; in most records, active means well fitted curve in the direction sought with a large enough effect; inconclusive means small, poorly fitted or top-dose-only effect, or another doubt; inactive means no such curve, though single readings can be large; an effect the other way counts as inactive or inconclusive. Potency means the concentration at half of the fitted maximal effect.

SMILES	LASV entry inh	Cruzain noTriton	Cruzain inh Det	NS1 inh	Marburg entry inh	SARS PLpro yeast	RE007 growth inh	2A StopGo
CC(C)CNC(=O)c1c2c(nc3ccccc13)-c1ccccc1CC2	-26.2%	2.5%	-1.7%	-5.4%	-25.3%	-3.4%	2.9%	-13.3%
Cc1cc(C)cc(NC(=O)c2ccc(S(=O)(=O)N(C)CC3CCCO3)cc2)c1 (stereo not drawn)	-11.0%	.	.	-52.1%	?	-1.6%	5.1%	-10.2%
O=C(CCc1ccccc1)Nc1ncc2c(n1)CCCC2=O	8.2%	-11.9%	0.8%	?	0.9%	1.6%	-0.2%	-11.7%
Clc1ccc(N2CCCCCC2)nn1	-1.1%	-11.2%	3.8%	-15.7%	-0.7%	11.0%	5.5%	2.7%
O=C(Nc1ccc(N2CCN(C(=O)c3cccs3)CC2)cc1)c1ccccc1F	?	.	.	-1.4%	?	-2.5%	2.7%	-5.1%
CCO/C=C1\C(=O)N(c2ccc(OCC)cc2)C(=O)c2ccccc21	15.2%[46.1 µM]	.	.	.	0.6%[46.1 µM]	-1.2%	7.7%	-18.0%
Cc1c(Cl)cccc1NC(=S)N1CCN(c2ncccn2)CC1	.	-4.2%	-2.1%	3.6%	-1.6%	-3.3%	10.9%	-10.5%
COc1ccc(NC(=O)CCNS(=O)(=O)c2cccc(C(C)=O)c2)cc1S(N)(=O)=O	1.2%	.	.	6.6%	-18.3%[46.1 µM]	0.8%	2.3%	14.1%
Fc1cccc(Oc2nc3ccccc3n3cccc23)c1	5.9%	-14.3%	-5.3%	2.4%	-0.8%	6.9%	5.5%	-21.3%
COC(=O)c1ccccc1C(=O)N1CCCC(C(=O)c2cc(F)ccc2F)C1 (stereo not drawn)	-3.5%	.	.	-1.7%	-0.6%[46.1 µM]	0.0%	3.0%	-12.8%
O=C(Nc1cc(C(F)(F)F)ccc1Cl)c1cc(C2CC2)on1	30.2%[14.3 µM]	-20.8%	-3.1%	-3.5%	6.1%	13.2%	-14.9%	1.7%
C1CCC(NC2CCCCC2)CC1	.	8.0%&-3.9%	2.0%&4.2%	.	.	-1.2%	19.4%	-22.5%
O=C(Nc1ccc(N2CCOCC2)cc1)c1ccc([N+](=O)[O-])o1	-28.0%[46.1 µM]	.	.	-41.2%	?	17.9%	?	27.1%
CCCC(=O)Nc1nnc(-c2cccc(OCC)c2)s1	-11.1%	-1.7%	0.5%	3.8%	-14.8%	0.2%	-13.0%	29.9%
O=C(NCc1ccccc1F)c1cc(=O)[nH]c2ccccc12	0.4%[46.1 µM]	.	.	-9.9%	-0.7%[46.1 µM]	-5.0%	-2.6%	-2.5%
Cc1ccc(C(=O)N2CCN(c3cccc(C)c3C)CC2)o1	.	.	.	-36.5%	.	-7.8%	-25.6%	-10.9%
COc1ccc(-c2cc(C3CCN(CC(O)C(F)(F)F)CC3)[nH]n2)cc1 (stereo not drawn)	.	.	.	1.2%	.	0.7%	-1.2%	-1.1%
COc1ccc(CNC(=O)CCn2c(=O)c3cccn3c3ccc(F)cc32)cc1OC	?	25.5%	-3.6%	.	.	.	.	-7.5%
CCCn1c(NCc2ccccc2F)nc2ccccc21	0.7%[46.1 µM]	11.0%	-3.1%	.	8.2%[46.1 µM]	.	.	54.4%[activator]
Cc1[nH]n(-c2ccccc2)c(=O)c1C=Nc1ccc(S(=O)(=O)N(C)C)cc1	1.6%	27.3%	-6.5%	11.9%	?	1.9%	15.1%	-1.6%
CN(Cc1ccccc1)C(=O)CSc1nc2ccccc2n1Cc1ccccc1F	?	-6.1%	-1.4%	.	.	.	.	-17.8%
CN(C)S(=O)(=O)c1ccccc1C#N	22.7%	1.2%	0.4%	7.8%	5.9%	3.9%	-8.3%	.
O=C(CSC1=NNC(c2ccccn2)S1)Nc1cccc(Cl)c1 (stereo not drawn)	-26.0%	.	.	-105.7%	?	?	3.0%	12.7%
c1ccc(C2=Nc3c(ccc4ccccc34)C(c3ccncc3)=NN2)cc1	?	.	.	-8.9%	?	-2.1%	-9.1%	?
CN(C(=O)c1cccn(Cc2ccccc2)c1=O)c1ccccc1	10.0%	.	.	0.9%	8.3%[46.1 µM]	2.2%	15.2%	-15.7%
Cn1c(N)c(C(=O)COC(=O)COc2cc(Cl)c(Cl)cc2Cl)c(=O)n(C)c1=O	6.2%[46.1 µM]	.	.	.	2.5%[46.1 µM]	-14.2%	0.8%	-6.8%
O=C(CSc1c2c(nc3cc(Cl)ccc13)CCCC2)NCc1ccccc1Cl	?	-2.8%	-2.0%	.	?	.	.	?
Cc1ccc2nc(SCc3nnc(-c4cccs4)o3)[nH]c2c1	4.6%	-26.6%	-14.1%	-77.8%	?	4.9%	?	-22.2%
CCN1CCN(CCCN(Cc2cccs2)C(=S)Nc2ccccc2C)CC1	2.3%[46.1 µM]	.	.	-1.9%	-3.8%[46.1 µM]	-0.2%	-14.3%	16.6%
CN1CCN(C(=O)/C(=C/c2ccccc2Cl)NC(=O)c2ccccc2)CC1	?	.	.	-1.4%	14.0%[46.1 µM]	0.8%	18.2%	19.5%
COC1(OC)N=C(N)C2(C#N)C(c3ccc4c(c3)OCO4)C12C#N (stereo not drawn)	12.9%	-5.2%	-2.4%	3.9%	10.5%	1.5%	1.1%	-0.7%
CS(=O)(=O)N1CCC(C(=O)N2CCN(c3ccc(F)cc3)CC2)CC1	2.2%	.	.	-0.7%	?	0.9%	-18.1%	-6.4%
CCCCOc1ccc(NC(=O)c2cnc(C)cn2)cc1	7.3%	-2.1%	3.5%	-5.3%	-1.1%[46.1 µM]	-2.5%	4.8%	22.6%
O=C(NCCCCc1ccccc1)C1CC(c2cccc(F)c2)=NO1 (stereo not drawn)	.	.	.	-41.1%	.	-6.4%	-8.5%	3.7%
CC1CN(S(=O)(=O)c2cccc3nsnc23)CC(C)O1 (stereo not drawn)	14.5%	1.8%	-0.1%	-2.6%	12.9%	6.2%	5.9%	.
Cc1ccc(-n2nc(-c3ccccc3)c3cnc4cc5c(cc4c32)OCO5)cc1C	9.1%[46.1 µM]	-0.2%	-0.8%	.	-4.9%[46.1 µM]	.	.	-8.5%
COc1ccc(CC(=S)NCCc2ccccc2)cc1	.	.	.	-11.5%	.	7.0%	-24.0%	23.1%
CCN1C(=O)c2cccc3c(NC(=O)C4CCCCC4)ccc1c23	3.3%	?	0.0%	-33.5%	?	-3.7%	14.9%	?
Cc1ccc(NC(=O)c2cc3ccccc3o2)cc1	.	.	.	-44.2%	.	-4.2%	-24.0%	34.7%[activator]
CSc1ccccc1NC(=O)COc1ccccc1Cl	1.2%	-1.6%	-5.9%	-54.4%	7.5%	-19.6%	?	-8.9%
Cc1cc(C)cc(NC(=O)CSc2nc(=O)n(CCCN3CCOCC3)c3c2CCCC3)c1	13.1%	.	.	.	-28.1%	3.6%	-9.1%	-21.8%
CCCn1c(=O)c2ccccc2n2c(SCC(=O)Nc3cc(C)on3)nnc12	24.5%	6.6%	-3.8%	4.7%	6.2%	-1.9%	30.8%	-1.2%
COc1cc(NC(=S)N2CCc3ccccc3C2)cc(OC)c1	13.5%[46.1 µM]	.	.	.	?	0.2%	-3.8%	38.8%[activator]
O=C(Nc1ccc(Oc2ccc3ccccc3c2)cc1)c1ccco1	-35.8%	10.8%	1.6%	-145.6%	?	-22.6%	?	0.0%
Cc1nn(Cc2ccc(C(=O)N3CCCC3)o2)c(C)c1[N+](=O)[O-]	15.6%[46.1 µM]	.	.	5.6%	-18.2%[46.1 µM]	1.5%	-6.3%	11.6%
O=C1C(=O)N(Cc2cccnc2)C(c2ccc(Br)cc2)/C1=C(\O)c1ccc2c(c1)OCCO2 (stereo not drawn)	.	.	.	-0.4%	.	-5.7%	-1.4%	-8.8%
CCOC(=O)c1[nH]c2ccccc2c1NC(=O)c1ccccc1OCC	-14.1%[46.1 µM]	1.3%	-8.3%	.	?	.	.	-13.4%
Nc1ccc(C(=O)OCC(=O)Nc2ccc3c(c2)OCO3)cc1[N+](=O)[O-]	-1.3%	-26.6%	-6.0%	?	?	-14.2%	3.2%	14.0%
CCC(C)(C)NC(=O)CN(C(=O)CCC(=O)Nc1ccccn1)c1ccc(F)c(Cl)c1	15.9%	?	-4.7%	-2.1%	-29.5%	-1.7%	4.6%	14.8%
O=C(Nc1ccc(Br)c(Cl)c1)c1ccc(C(=O)Nc2ccc(Br)c(Cl)c2)cc1	-2.5%[46.1 µM]	-16.4%	6.1%	.	2.9%[46.1 µM]	.	.	?

The list goes on:
SMILES	LASV entry inh	Cruzain noTriton	Cruzain inh Det	NS1 inh	Marburg entry inh	SARS PLpro yeast	RE007 growth inh	2A StopGo
Cc1cccc(CSc2nc3cc(C(=O)NC4CCCC4)ccc3c(=O)n2Cc2ccccc2)c1	?	-3.6%	-0.9%	.	.	.	.	-17.6%
COc1cccc(CN(C)C(=O)c2ccccc2Sc2ccccc2C#N)c1OC	.	.	.	5.6%	.	-1.4%	-4.7%	20.7%
O=C(O)Cn1c(-c2ccccc2)nc2ccccc21	0.7%	-4.6%	1.7%	3.2%	4.7%	-7.2%	-19.4%	0.0%
O=Cc1ccc(-c2ccc(C(=O)O)cc2)o1	.	.	.	3.7%	.	0.3%	-12.5%	-28.0%
Cc1ncc(CO)c2c1Oc1nc(-c3ccccc3)nc(SCC(=O)Nc3cccc(C(F)(F)F)c3)c1C2	14.6%[46.1 µM]	14.7%	5.2%	.	.	.	.	11.9%
CCOC(=O)c1[nH]c(C)c(CCC(=O)Nc2ccccc2OCC)c1C	?	5.9%	-1.0%	.	.	.	.	-2.8%
O=C(NC(CC(=O)N1CCN(c2ccccc2)CC1)c1ccccc1)c1ccccc1Cl (stereo not drawn)	3.6%	17.0%	-2.2%	-6.5%	-2.2%	-16.8%	19.8%	-13.8%
CCOC(=O)CNS(=O)(=O)c1ccc(C)cc1	10.6%	-5.2%	-1.5%	2.7%	9.7%	4.1%	3.5%	62.8%[activator]
